Screening data (PubChem)
Autofluor counter = flagged as autofluorescent in microsphere protease counterscreen. fluorescence intensity (no concentration beside the values). 360,000 compounds, 3.1% hits. compound autofluorescence counterscreen, microsphere flow cytometry; stronger effect = higher value;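 active means at least 3 SD above the mean of all compounds, about 16000 in these data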;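 further: 100 nL of 1 mM stock went into each well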
An asterisk follows results filed as active. An excerpt; count on the stated rates, not on these rows.

| canonical_smiles | Autofluor counter |
| --- | --- |
| COC(=O)CCCC[C@@H]1O[C@H](CCc2ccccc2)Cc2[nH]c(=S)[nH]c(=O)c21 | 6078 |
| Cc1noc(C)c1-c1ccc(C(=O)NCc2cccc(Cl)c2)c2occc12 | 3419 |
| CC(=O)NC(C)(c1ccccc1)c1nc(-c2cccc(F)c2)cs1 (centres undefined) | 4025 |
| O=c1c2cc([N+](=O)[O-])ccc2sn1-c1ccccc1 | 3770 |
| Cc1ccc(S(=O)(=O)NCc2ccccc2)cc1C(=O)NCC(=O)Nc1c(C)cccc1C | 3718 |
| CC1(C)CC(NCc2ccccc2)=CC(=S)N1 | 6396 |
| CC1=C(C(=O)N(C)C)CC(CC(=O)NCCN2CCOCC2)C(=O)N1Cc1ccccc1 (centres undefined) | 3753 |
| Cc1cc(Br)c(NC(=O)CN2C(=O)NC3(CCOc4ccccc43)C2=O)c(Br)c1 (centres undefined) | 2877 |
| O=C(c1ccc(-c2ccccc2)cc1)N1CCC2CC1c1cc(-c3ccc4c(c3)OCO4)ccc12 (centres undefined) | 6192 |
| O=C(COC(=O)c1ccccc1Cl)Nc1cccc(S(=O)(=O)N2CCCCC2)c1 | 3942 |
| O=C1NC(Cc2ccccc2)c2nc3cc(F)c(F)cc3c(=O)n2-c2cc3ccccc3cc21 (centres undefined) | 2996 |
| CC(=O)N1CCN(S(=O)(=O)c2cccc(C(=O)NC3CCCC(C)C3C)c2)CC1 (centres undefined) | 3863 |
| CC(C)C[C@H]1CNC(=O)C(=O)N1CC1CCN(CC2CCC(C)CC2)CC1 (some centres undefined) | 6035 |
| CN(C)CCN1CCN(C2CN(CCc3ccccc3)S(=O)(=O)C2)CC1 (centres undefined) | 6330 |
| N#Cc1ccsc1NC(=O)c1ccc2ncsc2c1 | 3982 |
| C[C@@H]1CN([C@H](C)CO)C(=O)CCCn2cc(nn2)CO[C@H]1CN(C)C(=O)c1ccncc1 | 4325 |
| COc1cc2c(cc1OC)CN1CCc3cc(OC)c(OC)cc3C1C2 (centres undefined) | 5526 |
| COc1ccccc1NC(=O)N(C)C[C@@H]1OCc2cnnn2CCCC(=O)N([C@@H](C)CO)C[C@H]1C | 3537 |
| COc1ccccc1C(=O)N1CCN(c2nc3cc(C)cc(C)c3cc2C#N)CC1 | 3063 |
| Cc1ccc([C@H]2C[C@@H](O)[C@H](n3cc(C4CC4)nn3)CN2Cc2cccs2)cc1 | 3614 |
| C[C@H](CO)N1C[C@H](C)[C@@H](CN(C)Cc2cccnc2)Oc2ncc(-c3cccc(C#N)c3)cc2C1=O | 3641 |
| COc1cccc(N2CCN(C(=O)c3cccc(S(=O)(=O)N4CCCC4)c3)CC2)c1 | 3821 |
| CC1(C(=O)NS(=O)(=O)c2cccs2)CCN1C(=O)C1CC1 (centres undefined) | 2953 |
| C[C@H]1CN([C@@H](C)CO)C(=O)CCCn2cc(nn2)CO[C@@H]1CN(C)C(=O)c1cc(-c2ccccc2)on1 | 2938 |
| COc1cccc(-c2cccc(NC(=O)C3CCN(CCCn4cccn4)CC3)c2)c1 | 4168 |
| CCc1nc2ccc(C(=O)NCc3ccccc3OC)cn2c1N(C=O)CCC(C)C | 3319 |
| Cc1ccc(C)c(CC(=O)N2CCCCC2c2cc(C(=O)Nc3cccc(C#N)c3)no2)c1 (centres undefined) | 3902 |
| O=C(OCc1ccccc1)N1CCC2CC1c1ccc(Cl)cc12 (centres undefined) | 3017 |
| CC(=O)Nc1ccc(-c2ccnc3c2CC(C(=O)Nc2cccc(C(C)=O)c2)O3)cc1 (centres undefined) | 2780 |
| COc1cccc(NC(=O)N(C)C[C@H]2OCc3cnnn3CCCC(=O)N([C@H](C)CO)C[C@@H]2C)c1 | 3565 |
| Cc1ccsc1/C=C1\Oc2cc(O)ccc2C1=O | 3554 |
| C[C@@H]1CN([C@H](C)CO)S(=O)(=O)c2ccc(C#C[C@@H](C)O)cc2O[C@@H]1CN(C)Cc1ccc(-c2ccccc2)cc1 | 2868 |
| O=C(NCC1CCCCC1)c1ccc2nc([C@@H]3O[C@H](CO)[C@H](O)[C@H](O)[C@H]3O)[nH]c2c1 | 2962 |
| CC(=O)Nc1cccc(-c2ccnc3c2CC(C(=O)Nc2ccccc2)O3)c1 (centres undefined) | 3632 |
| COc1ccccc1CN1CC(C(=O)NCCCCc2ccccn2)CCC1=O (centres undefined) | 4013 |
| O=C1NCN(c2ccccc2)C12CCN(C(c1cccc3ccccc13)c1nnnn1C1CCCCC1)CC2 (centres undefined) | 5762 |
| c1ccc2c(C(c3nnnn3-c3ccc4c(c3)OCCO4)N3CCCCC3)ccnc2c1 (centres undefined) | 4464 |
| CC1(C(=O)NS(=O)(=O)c2cccc(C#N)c2)CCN1C(=O)CC1CC1 (centres undefined) | 4310 |
| COc1ccc(NC(=O)c2cc(C3CCCCN3C(=O)c3ccc(Cl)cc3)on2)c(C)c1 (centres undefined) | 3758 |
| COc1ccccc1S(=O)(=O)N(C)C[C@@H]1OCc2cnnn2CCCC(=O)N([C@H](C)CO)C[C@@H]1C | 3764 |
| C[C@@H]1CN([C@@H](C)CO)C(=O)CCCn2nncc2CO[C@H]1CN(C)C(=O)Nc1ccc2c(c1)OCO2 | 3781 |
| N#C/C(=C\c1cccn1S(=O)(=O)c1cccc(C#N)c1)S(=O)(=O)c1ccc(F)cc1 | 3764 |
| CCC(c1nnnn1-c1ccc2c(c1)OCCO2)N1CCN(C(=O)C2CCCO2)CC1 (centres undefined) | 5946 |
| COCCNc1nc(NCc2ccccc2)nc2ccsc12 | 2760 |
| CCOC(=O)[C@]12CCC=C1N(CCC1=CCCCC1)C(=O)[C@H](CC(=O)NCCCN1CCCC1=O)C2 | 7214 |
| Cc1ccc(-c2nn(-c3ccccc3)cc2C(=O)Nc2cccc(S(=O)(=O)NC3=NCCC3)c2)cc1 | 3978 |
| C=C[C@H]1C(C(=O)OCC)=CC[C@@H](c2ccccc2)N1S(=O)(=O)c1ccc(C)cc1 | 5863 |
| COc1ccc(OCCN2CCC(C(=O)NC(c3ccccn3)c3ccccc3OC)CC2)cc1 (centres undefined) | 3753 |
| C[C@@H]1CN([C@@H](C)CO)C(=O)CCCn2nncc2CO[C@H]1CN(C)S(=O)(=O)c1cccc(C#N)c1 | 3541 |
| Cc1ccc([C@H]2C[C@@H](n3cc(COC(=O)c4ccccc4)nn3)[C@H](O)CN2C(=O)C2CCCCC2)cc1 | 4014 |
| CCCCNC(=O)C1(C)CCN1C(=O)c1cc(F)ccc1C (centres undefined) | 3959 |
| COC(=O)C[C@H]1C[C@@H]2c3cc(N(C)C)ccc3O[C@@H]2[C@H](CO)O1 | 3470 |
| CCCS(=O)(=O)NC(=O)C1(C)CCCN(C(=O)c2ccncc2)C1 (centres undefined) | 4114 |
| OC(c1cccnc1)c1nc(-c2ccc3c(c2)OCO3)cs1 (centres undefined) | 4026 |
| CCCCC[C@@H](C)N1C[C@H](COCc2ccccc2)Oc2cc(N3CCC[C@H]3CO)ccc2S1(=O)=O | 5931 |
| Cc1ccc(-c2nc3ccc(Cl)cn3c2Cc2ccccc2C(F)(F)F)cc1 | 4653 |

New compounds follow
| canonical_smiles | Autofluor counter |
| --- | --- |
| COc1ccc(C2=Nc3ccccc3NC(=O)C2N(Cc2ccccc2)C(=O)C2=NNC(=O)CC2)cc1 (centres undefined) | 4058 |
| CN(C)CCN1CCN(C2CN(Cc3ccccc3)S(=O)(=O)C2)CC1 (centres undefined) | 5401 |
| COc1ccc(OCc2cc(C(=O)NC(C)c3nc(C)cs3)no2)c(Cl)c1 (centres undefined) | 4078 |
| O=S1(=O)N[C@H](Cc2ccccc2)COc2cccc(N3CCC[C@@H]3CO)c21 | 4106 |
| O=C1NC[C@H](CCCCN2C[C@@H](Cc3ccccc3)N(Cc3ccccc3)C(=O)C2=O)N(CCC2CCCCC2)C1=O | 6100 |
| CC(O)(c1ccc(F)c(F)c1)c1nc(-c2ccc(S(C)(=O)=O)cc2)cs1 (centres undefined) | 3541 |
| O=C(NC(c1ccc(F)cc1)c1cnccn1)C1CCN(CCOc2ccc(Cl)cc2Cl)CC1 (centres undefined) | 3047 |
| CN1CCN(c2ccc(CNC(=O)C3Cc4c(-c5ccc6c(c5)OCO6)ccnc4O3)cc2)CC1 (centres undefined) | 3567 |
| O=C(Nc1ccc2c3c(cccc13)CC2)c1ccccc1 | 2955 |
| O=C1CCC2(O)C3Cc4ccc(O)c5c4C2(CCN3Cc2ccoc2)C1O5 (centres undefined) | 3824 |
| CCCCNC(=O)C[C@@H]1C[C@@]2(C(=O)OCC)CCC=C2N(Cc2ccccc2)C1=O | 5938 |
| O=C(NCC1=C(c2cccc3ccccc23)C[C@@H]2CC[C@H]1N2Cc1ccco1)c1cccs1 | 3792 |
| CCc1nc2ccc(C(=O)N3CCN(S(=O)(=O)CC)CC3)cn2c1N(C=O)CCC(C)C | 3572 |
| CC(C)Oc1cccc(NC(=O)C2(C)CCCN2C(=O)C(C)C)c1 (centres undefined) | 3785 |
| CC(CCl)n1c(=O)c2ccccc2n1S(C)(=O)=O (centres undefined) | 6241 |
| CC1(C(=O)Nc2cccc3c2CCCC3)CCN1C(=O)CCC1CCCC1 (centres undefined) | 3622 |
| CNC(=O)C[C@H]1C(=O)N(C2CCCCC2)C[C@@H]1CSC | 3916 |
| OC[C@@H]1CN(Cc2cccs2)C[C@H](n2cnc3c(NCc4ccncc4)ncnc32)O1 | 4053 |
| Clc1cccc(Cc2c(-c3ccco3)nc3ccc(Cl)cn23)c1 | 5496 |
| COc1c(C)cc(C(O)c2ncc(-c3ccccc3)[nH]2)cc1C (centres undefined) | 3016 |
| CCOC(=O)[C@]12Cc3cc4ccccc4cc3[C@H]1N(Cc1ccccc1)C(=O)c1cc(OC)ccc12 | 5309 |
| O=C(O)c1cccc(S(=O)(=O)Nc2ccccc2Oc2ccccc2)c1 | 3248 |
| COc1ccc(-c2coc3c(C(=O)NC4CCCCC4)cccc23)c(C)c1 | 3716 |
| C[C@@H]1CN([C@@H](C)CO)C(=O)CCCn2nncc2CO[C@H]1CN(C)C(=O)c1ccc(N2CCN(C)CC2)cc1 | 2965 |
| O=C(NCCc1ccccc1)c1ccccc1C(F)(F)F | 4021 |
| CC(C)CNc1ncnc2c1ncn2[C@H]1CN(Cc2ccc(Cl)cc2)C[C@@H](CO)O1 | 2921 |
| O=C(c1ccc(C(F)(F)F)cc1)N1CCC(=O)N([C@H](COCc2ccccc2)Cc2ccccc2)CC1 | 5852 |
| Cn1c(NCc2cccnc2)nc2cc(-c3ccc(F)cc3)sc2c1=O | 2811 |
| COc1ccc([C@H]2C[C@@H](n3cc(-c4ccc(F)cc4)nn3)[C@H](O)CN2Cc2cccs2)cc1 | 3768 |
| COc1cccc(CNc2nc3cc(-c4ccc(OC)c(OC)c4)sc3c(=O)n2C)c1 | 3415 |
| CCCN1CCC(C(=O)NC(c2ccc(Cl)cc2)c2ccsc2)CC1 (centres undefined) | 3968 |
| CC(C)(C)c1ccc(S(=O)(=O)NC(=O)C2(C)CCN2C(=O)Cc2ccc(-c3ccccc3)cc2)cc1 (centres undefined) | 2827 |

Already shown: entries from further up.
| canonical_smiles | Autofluor counter |
| --- | --- |
| OC[C@@H]1CN(Cc2cccs2)C[C@H](n2cnc3c(NCc4ccncc4)ncnc32)O1 | 4053 |
| Clc1cccc(Cc2c(-c3ccco3)nc3ccc(Cl)cn23)c1 | 5496 |
| COc1c(C)cc(C(O)c2ncc(-c3ccccc3)[nH]2)cc1C (centres undefined) | 3016 |
| CCOC(=O)[C@]12Cc3cc4ccccc4cc3[C@H]1N(Cc1ccccc1)C(=O)c1cc(OC)ccc12 | 5309 |
| O=C(O)c1cccc(S(=O)(=O)Nc2ccccc2Oc2ccccc2)c1 | 3248 |
| COc1ccc(-c2coc3c(C(=O)NC4CCCCC4)cccc23)c(C)c1 | 3716 |
| C[C@@H]1CN([C@@H](C)CO)C(=O)CCCn2nncc2CO[C@H]1CN(C)C(=O)c1ccc(N2CCN(C)CC2)cc1 | 2965 |
| O=C(NCCc1ccccc1)c1ccccc1C(F)(F)F | 4021 |
| CC(C)CNc1ncnc2c1ncn2[C@H]1CN(Cc2ccc(Cl)cc2)C[C@@H](CO)O1 | 2921 |
| O=C(c1ccc(C(F)(F)F)cc1)N1CCC(=O)N([C@H](COCc2ccccc2)Cc2ccccc2)CC1 | 5852 |
| Cn1c(NCc2cccnc2)nc2cc(-c3ccc(F)cc3)sc2c1=O | 2811 |
| COc1ccc([C@H]2C[C@@H](n3cc(-c4ccc(F)cc4)nn3)[C@H](O)CN2Cc2cccs2)cc1 | 3768 |

Other structures follow.
| canonical_smiles | Autofluor counter |
| --- | --- |
| CSCCC(NC(=O)COc1ccccc1)C(=O)N(C)Cc1c(F)cccc1Cl (centres undefined) | 3816 |
| CCc1cccc(CC)c1NC(=O)c1ccc(-c2cc(Cl)ccc2Cl)o1 | 3549 |
| NC(Cc1ccccc1)c1csc(NC(=O)c2cccc(OC(F)(F)F)c2)n1 (centres undefined) | 3567 |
| CCCCc1c(-c2ccccc2)ncn1CCc1ccccc1OC | 5362 |
| O=C(NCc1ccncc1)[C@@H]1CCCN1C(=O)[C@H]1CCCN1 | 7991 |
| CC1(C(=O)Nc2cnc3ccccc3c2)CCN1Cc1ccc(-c2ccccc2)o1 (centres undefined) | 4094 |
| O=C(NCc1ccccc1Cl)c1ccc2nc([C@H]3C[C@H](O)[C@@H](CO)O3)[nH]c2c1 | 3875 |
| COCCNC(=O)C1CCCN(C(=O)C2(c3ccc(Cl)cc3)CCCC2)CC1 (centres undefined) | 2881 |
| COC(=O)c1cc(N/C(N)=N/c2nc(C)cc(C)n2)cc(C(=O)OC)c1 | 3938 |
| OC(c1ccccc1)c1ncc(-c2ccccc2Cl)[nH]1 (centres undefined) | 3997 |
| CCc1nc2c(OCc3ccc(F)c(F)c3)cccn2c1N(C)C(=O)c1ccc(OC)cc1 | 3802 |
| CC(C)(C)OC(=O)N1C(=O)[C@](OC(=O)c2ccccc2)(c2ccc(F)cc2)c2ccccc21 | 5463 |
| Cc1cc(C)cc(CC(=O)N2CCC2(C)C(=O)NS(=O)(=O)c2ccc(Br)cc2)c1 (centres undefined) | 3509 |
| Cc1cn([C@H]2C[C@H](O)[C@@H](CNC(=O)CNC(=O)CN)O2)c(=O)[nH]c1=O | 3692 |
| CC1(C(=O)NS(=O)(=O)C2CC2)CCCN(C(=O)COCc2ccccc2)C1 (centres undefined) | 4074 |
| O=C(NCc1cccc(C(F)(F)F)c1)c1c[nH]c(=O)s1 | 4003 |
| CCN(c1ccccc1)S(=O)(=O)c1cccc(C(=O)Nc2cccc(C)n2)c1 | 4019 |
